From PubChem BioAssay
Vaccinia Venus: vaccinia inhibition (Venus reporter); Vaccinia virus Venus reporter expression, fluorescence; Potency, µM (titrated, usually from 36.5 µM), for inactives: at the highest dose activity change, negative = inhibition, usual class: inhibitors; actives 0.46% (n = 330,000); active means well fitted inhibition curve with a large enough effect; inconclusive means small, poorly fitted or top-dose-only effect; inactive means no such curve, though single readings can be large or run the other way; tested in A549 cells; further: nearly all actives have a fitted effect of over 30% in size; inactives centre near -10
Vaccinia mCherry: vaccinia inhibition (mCherry reporter); Vaccinia virus mCherry reporter infection, fluorescence; about a quarter of the inactives have no number; Potency, µM (titrated, usually from 36.5 µM), without a hit: top-dose activity change, negative = inhibition, most hits filed as inhibitors; actives 0.63% (n = 310,000); active = well fitted inhibition curve with a large enough effect; inconclusive = small, poorly fitted or top-dose-only effect; inactive = no such curve, though single readings can be large or run the other way; tested in A549 cells; further: nearly all actives have a fitted effect of over 35% in size; inactives centre near -10
Active calls of the source: *; i = inactive; ? = inconclusive; nt = not tested or not shown; & = joins results of further samples; [ ] = remark or other dose. On the % scale 0 is the no-effect control and ±100 the full control effect; potency means the concentration at half of the fitted maximal effect.

Sequence of screens: Vaccinia Venus	Vaccinia mCherry
- C/C(=N\OCC(=O)Nn1c(=O)[nH]c2ccccc2c1=O)c1cccs1
    -6.6%	-12.8%
- Cc1ccc(S(=O)(=O)c2nc(-c3ccccc3Cl)oc2N(C)C)cc1
    ?	-8.3%
- COC(=O)c1ccc(Cn2cc(Cl)cn2)cc1
    -11.0%	-16.9%
- Cc1ccc(Cl)cc1NC(=O)c1cc(NC(=O)CCCC(=O)O)ccc1N1CCCCC1
    -6.3%	i
- O=C(Nc1ccc(F)c([N+](=O)[O-])c1)c1ccc2c(c1)OCCO2
    5.8%	i
- COC(=O)c1cccc(Nc2c(-c3ccc(OC)cc3)nc3nc[nH]n23)c1
    -22.4%	?
- COc1ccc(S(=O)(=O)N2CCCN(CC(=O)Nc3ccc(OC)c(Cl)c3)CC2)cc1
    -13.0%	-18.9%
- Cc1ccc2cc(C(c3nnnn3C3CCCC3)N(Cc3cccnc3)Cc3ccco3)c(=O)[nH]c2c1 (stereo not given)
    -12.1%	i
- Cc1cc(C)cc(N2CC(C(=O)OCC(=O)Nc3cc(C)on3)CC2=O)c1 (stereo not given)
    0.0%	i
- CCOC(=O)C1=C(C)NC(=O)CC1c1cc2c(cc1Br)OCO2 (stereo not given)
    -23.7%	nt

The list goes on.
Sequence of screens: Vaccinia Venus	Vaccinia mCherry
- C=CCOc1ccc(/C=C/C(=O)OC(C)C(=O)Nc2ccc(NC(C)=O)cc2)cc1 (stereo not given)
    -10.0%	-15.1%
- COc1ccc2[nH]cc(CCNC(=O)c3cnn(-c4ccccc4Cl)c3C3CCN(C(=O)OC(C)(C)C)CC3)c2c1
    -16.3%	-12.1%
- c1ccc(-c2cncn2-c2ccccc2)cc1
    -5.9%	i
- Cc1cc(C)cc(NC(=O)C(Cc2ccccc2)N2Cc3ccccc3C2=O)c1 (stereo not given)
    -8.6%	i
- Cn1c(SCC(=O)c2ccc(F)cc2)nc2cccnc21
    -16.1%	-24.8%
- CCN1C[C@@H]2[C@@H]3C(=O)N(Cc4ccccc4)C(=O)[C@@H]3[C@](Cc3ccccc3)(C1=O)N2C(=O)c1ccccc1
    -10.7%	i
- CCCC(C)C(=O)Nc1ccc(Cl)cc1Cl (stereo not given)
    2.1%	nt
- CC(N)C(O)c1cccc(O)c1 (stereo not given)
    -10.5%	i
- C[C@@]12C(=O)N(CC3CC3)CC(=O)N1[C@H](/C=C/c1ccccc1)[C@@H]1C(=O)N(c3ccccc3)C(=O)[C@@H]12
    -15.4%	i
- CCOC(=O)c1ccc(NC(=O)CCc2ccc(C)o2)cc1
    -5.2%	nt

Other records follow:
Sequence of screens: Vaccinia Venus	Vaccinia mCherry
- CCn1c(/C=N/n2cnnc2)nc2ccccc21
    -9.8%	i
- Clc1cccc(-c2cc3nc4c(c(NCc5ccco5)n3n2)CCCC4)c1
    ?	-29.1%
- O=C(Nc1ccccc1OC(F)F)c1ccc(N2CCCC2=O)cc1
    -15.4%	-9.5%
- O=C(NCc1cccnc1)C(=O)NCC(c1cccnc1)N1CCN(c2ccc(F)cc2)CC1 (stereo not given)
    -8.0%	-9.5%
- O=C(CSc1ncccn1)c1ccccc1Br
    -9.6%	nt
- O=C(NCc1ccccc1)C(=O)NCC1CCCN1S(=O)(=O)c1cccs1 (stereo not given)
    -8.8%	-13.7%
- COc1ccc(Cl)cc1C(=O)Nc1ccc(S(=O)(=O)N2CCCC2)cc1
    -6.7%	-8.1%
- O=C1CSC(c2cccnc2)N1Cc1ccc(Cl)cc1Cl (stereo not given)
    -6.2%	i
- CCOC(=O)c1c(C)c(C)n(Cc2cccc(OC)c2OC)c1C
    -8.0%	i
- Oc1ccc(-c2nnc(-c3ccc(O)cc3)nn2)cc1
    -0.8%	1.1%

Structures above containing a thiophene ring, fused or not, in the order listed:
Sequence of screens: Vaccinia Venus	Vaccinia mCherry
- C/C(=N\OCC(=O)Nn1c(=O)[nH]c2ccccc2c1=O)c1cccs1
    -6.6%	-12.8%
- O=C(NCc1ccccc1)C(=O)NCC1CCCN1S(=O)(=O)c1cccs1 (stereo not given)
    -8.8%	-13.7%

Other entries:
Sequence of screens: Vaccinia Venus	Vaccinia mCherry
- COc1ccc(-n2c(=O)c3c4c(sc3n(Cc3ccccc3)c2=O)CCC4)c(OC)c1
    -4.6%[7.34 µM]	-3.3%[7.34 µM]
- O=C(O)C(=O)Cc1c[nH]c2ccccc12
    5.4%	-3.9%
- [O-]/C(=C(\C(=S)Nc1ccc(SC(F)F)cc1)[n+]1cccc(CO)c1)c1ccc(Cl)s1
    -5.2%	-4.0%
- CC(=O)N1CCN(C(=O)c2cccc(S(=O)(=O)N3c4ccccc4CC3C)c2)CC1 (stereo not given)
    -13.0%	i
- O=C(Nc1nnc(CSCc2ccc(F)cc2)s1)c1cccc([N+](=O)[O-])c1
    -11.4%	-5.2%
- C/C(CC(=O)Nc1ccccn1)=N\NC(=O)C(=O)Nc1cccc(C)c1
    -15.1%	-14.7%[1.46 µM]
- O=S(=O)(c1cccc(S(=O)(=O)N2CCCC2)c1)N1CCCCC1
    -6.6%	-25.7%
- COc1ccc(C(=O)NNC(=O)CCc2ccccc2OC)cc1
    3.8%	-2.2%
- COc1ccc(/C=N/N=C2\SC(CC(=O)O)C(=O)N2c2ccccc2)c(OC)c1 (stereo not given)
    -7.2%	-13.4%
- CC(NC(=O)COC(=O)C1CSC2(C)CCC(=O)N12)C12CC3CC(CC(C3)C1)C2 (stereo not given)
    -14.9%	-5.5%

More entries follow.
Sequence of screens: Vaccinia Venus	Vaccinia mCherry
- COc1cccc(CNC(=O)c2ccc3c(c2)S(=O)(=O)N=C2CCCCCN23)c1
    -10.7%	-9.8%
- Cc1cccc(-c2nc(C)c(CCNC(=O)C(=O)Nc3c(C)cc(C)cc3C)s2)c1
    0.8%	0.4%
- CC(C)(C)c1ccc(OCc2cnc(Cl)s2)cc1
    -18.3%	i
- C=CCOc1ccccc1CNc1ccc2[nH]c(=O)[nH]c2c1
    -7.8%	-18.6%
- CCc1ccc(NC(=O)CCCc2nnc3n(C(C)CC)c(=O)c4sccc4n23)cc1 (stereo not given)
    -12.7%	-10.0%
- COc1ccc(OC2C(=O)N(c3ccc(F)cc3)C2c2ccc(OC)c(OC)c2)cc1 (stereo not given)
    -5.5%	-1.4%
- COc1ccc(S(=O)(=O)Cc2ccc(C(=O)NCc3cccnc3)o2)cc1
    -21.5%	-23.2%
- O=C1NC[C@@H](CCCCN2C[C@H](Cc3ccc(O)cc3)N(CCc3ccc(O)cc3)C(=O)C2=O)N(CC2CCCCC2)C1=O
    5.1%	5.5%
- C/C(N)=C(/C#N)C(=O)COc1ccc(Cl)cc1Cl
    -3.9%	-4.7%
- O=C(c1cc2nc(-c3ccccc3)cc(C(F)(F)F)n2n1)N1CCCC1
    -6.0%	-14.0%

Going on with the list:
Sequence of screens: Vaccinia Venus	Vaccinia mCherry
- O=c1cc(-c2ccccc2)oc2ccc(Cl)cc12
    -8.1%	8.1%
- Fc1cccc(CSc2ccc(-c3ccc4c(c3)OCO4)nn2)c1
    -12.5%	-2.2%
- CCN(C(=O)CCS(=O)(=O)c1cc(Br)cc2c1N(C(=O)C1CC1)CC2)c1cccc(C)c1
    -6.8%	-13.8%
- COC(=O)c1cc2occc2n1Cc1nc(-c2ccccc2C)oc1C
    -16.9%&-12.1%	?
- O=C(O)/C(=C\c1ccccc1)c1ccccc1
    -3.9%	i
- CCCCC(CC)CNC(=O)CCCCCn1c(=O)[nH]c2ccsc2c1=O (stereo not given)
    -9.7%	-11.6%
- COc1ccccc1CNC(=O)[C@H](C)NC(=O)C1CCN(C(=O)[C@@H](N)CCSC)CC1
    -3.8%	-11.0%
- Cc1ccccc1C(=O)Nc1ccc(S(=O)(=O)N2CCN(C)CC2)cc1
    -15.0%	-20.4%
- CC(=O)N/C(=C\c1ccccc1)C(=O)OC(C)C(=O)c1ccccc1 (stereo not given)
    3.2%	-9.1%
- CCC(Oc1ccccc1OC)C(=O)N1CC(=O)Nc2ccccc21 (stereo not given)
    -14.4%	-10.6%

Continuation.
Sequence of screens: Vaccinia Venus	Vaccinia mCherry
- CN(CC(=O)NC1CCCc2ccccc21)C1CCCCC1 (stereo not given)
    -2.4%	-6.5%
- Cc1cc(NC(=O)CSc2nc(C(C)C)nc3c2c(=O)n(C)c(=O)n3C)no1
    -18.3%	11.4%
- COc1ccccc1C(=O)NCC(=O)OCC(=O)N(CC(C)C)c1c(N)n(Cc2ccccc2)c(=O)[nH]c1=O
    -12.8%	-0.3%
- O=C(NCCN1CCOCC1)c1ccccc1N1C(=O)[C@@H]2Cc3c([nH]c4ccccc34)C(c3ccccc3)N2C1=O (stereo not given in full)
    9.9%	-8.4%
- Cc1ccc(Nc2c([N+](=O)[O-])c(=O)oc3ccccc23)cc1C
    -26.0%	i
- CNc1cncc(-c2cccc(C(=O)NC3CC3)c2)n1
    -0.6%	1.4%
- CCN1CCN(c2ccc(S(=O)(=O)N3CCCCC3)cc2NC(=O)/C=C/c2ccc(Cl)cc2)CC1
    ?	?
- CC1CC(C)(O)CC(C(O)CC2CC(=O)NC(=O)C2)C1=O (stereo not given)
    35.5µM*	?
- COc1cc(C(=O)Nc2ccccc2OCc2cc(=O)n3c(C)csc3n2)cc(OC)c1OC
    3.4%	1.4%
- COc1ccc(CN2C(=O)COc3ccccc3C2c2nc3ccccc3[nH]2)cc1 (stereo not given)
    7.5%	9.1%

Continuation:
Sequence of screens: Vaccinia Venus	Vaccinia mCherry
- CCOc1ccc(NC(=O)c2c(NC(=O)c3ccco3)sc3c2CCC(C(C)(C)C)C3)cc1 (stereo not given)
    -7.6%	i
- O=C(Nc1ccc(C(=O)N2CCCCC2)cc1)c1cccc([N+](=O)[O-])c1
    -14.5%	i
- CCc1nc2ccc(C(=O)N3CCN(C(C)=O)CC3)cn2c1N(CC)C(C)=O
    -6.7%	41.0%[activator]
- COc1ccccc1CNC(=O)c1cc(-c2ccccc2C)nn1CC1CC(c2cccnc2)=NO1 (stereo not given)
    -19.2%	-8.8%
- FC(F)(F)c1cnc2c(-c3ccc(Cl)cc3Cl)noc2c1
    -17.8%	nt
- CN1CCN(S(=O)(=O)c2ccc(N3CCc4ccccc4C3)nc2)CC1
    4.6%	-0.5%
- Cc1noc2ncnc(NCc3ccccc3Cl)c12
    -21.9%	-18.9%
- Cc1ccc(SCCNC(=S)Nc2cc(C)cc(C)c2)cc1
    -21.6%	nt
- COc1ccc(CCNC(=O)CSc2nc(N)cc(=O)[nH]2)cc1OC
    -7.0%	i
- CCC(=O)Nc1ccc(Cl)c(NC(=S)NC(=O)c2cc3ccccc3o2)c1
    -9.2%	i

The listing continues:
Sequence of screens: Vaccinia Venus	Vaccinia mCherry
- COc1ccccc1NC(=O)CCSCCC(=O)Nc1ccccc1OC
    -12.3%	i
- CC(=O)N(C(C)=O)c1c(N2CCCC2)c2ccccc2oc1=O
    -12.8%	-19.2%
- Cc1c(OCC(=O)N2CCC(C(N)=O)CC2)ccc2c1oc(=O)c1ccccc12
    -0.4%	-4.0%
- CCNS(=O)(=O)c1ccc(NC(=S)NCC2CCCO2)cc1 (stereo not given)
    -7.2%	i
- CCOC(=O)C1=C(CC)OC(N)=C(C#N)C1c1ccc(OC)c(C)c1OC (stereo not given)
    -10.6%	-16.6%
- Cc1ccc(NC(=O)C(C)OC(=O)C2CC3CCCC(C2)C3=O)cc1S(=O)(=O)N1CCOCC1 (stereo not given)
    -16.3%	-24.8%
- CSc1ccccc1NC(=O)c1cc2c(=O)n3ccccc3nc2s1
    -12.0%	-8.1%
- COc1ccc2c(c1)c(C(=O)O)c(C)n2C(C)C
    -5.3%	nt
- CC1(C)CC(NC(=O)COc2ccc3ccccc3c2)CC(C)(C)N1
    -15.8%	nt
- COc1ccc(CNc2cccc3[nH]c(C(F)(F)F)nc23)cc1
    -6.5%	?

Next compounds follow:
Sequence of screens: Vaccinia Venus	Vaccinia mCherry
- C=Cn1nc(C)c2ccccc2c1=O
    -4.0%	nt
- CC(C)Nc1nc(-c2cccnc2)nc(-c2ccc(Cl)cc2)c1C#N
    -9.7%	i
- CCOc1ccccc1C(=O)Nc1c(C(=O)Nc2ccc(F)cc2)oc2ccccc12
    -8.5%	-18.3%
- COc1cc2nc(COc3ccccc3[N+](=O)[O-])oc(=O)c2cc1OC
    1.7%	-14.1%
- COCc1nnc(NC(=O)C23CC4CC(CC(C4)C2)C3)s1
    -16.6%	i
- CCSc1nnc(NC(=O)COc2ccccc2[N+](=O)[O-])s1
    -23.6%	-10.1%
- Cc1cc(Cl)ccc1OCc1nnc(-c2ccccc2C)o1
    -6.2%	i
- CCCNC(=O)Cn1c(=O)/c(=C\c2ccc(-c3ccc([N+](=O)[O-])cc3)o2)s/c1=C\C(=O)C(C)(C)C
    51.4%[activator]	0.1%
- CCCn1nc(NC(=O)COC)c2cc3cccc(C)c3nc21
    -22.9%	-16.2%
- N#Cc1ccccc1Sc1ccccc1C(=O)Nc1ccc2ccccc2c1
    -13.6%	?

Continued.
Sequence of screens: Vaccinia Venus	Vaccinia mCherry
- CN1CCN(S(=O)(=O)c2ccc(NC(=O)c3ccc(F)cc3Cl)cc2)CC1
    -11.6%	-10.7%
- COc1cc(Cl)nn(-c2ccccc2)c1=O
    -6.7%	-9.9%
- Cc1ccc(OCCCCNC(C)(C)C)c([N+](=O)[O-])c1
    -8.6%	-12.9%
- CC(=O)N1CCc2cc(S(=O)(=O)NCCCN3CCCCC3)ccc21
    -6.2%	i
- CC(C)(C)Nc1nc(Oc2ccc(=O)[nH]n2)nc(N2CCOCC2)n1
    2.6%	-1.7%
- CN1C(=O)C(CC(=O)Nc2ccc(F)cc2)N(Cc2cccs2)C1=S (stereo not given)
    -5.5%	-1.0%
- CC(=O)c1ccc(NC(=O)N2C[C@H]3C[C@@H](C2)c2cccc(=O)n2C3)cc1
    -3.5%	-3.2%
- C=CCn1c(SCC(=O)c2c(N)n(C3CC3)c(=O)[nH]c2=O)nnc1-c1ccoc1C
    -2.3%	i
